Compound activity (PubChem BioAssay)
CapD inh = blocks the Bacillus anthracis CapD enzyme. z-score (test concentration not listed). actives 0.23% (n = 140,000). purified CapD enzyme, fluorescence intensity read-out; hits give low values; some hits fall short of the stated cut;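 active = z-score under -4 in either of two replicates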;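 also: stock transfer was 100 nL into about 40 µL; score is relative to mean and spread of the plate; one replicate is shown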
AID504770 = growth inhibitors of E. coli YBA685 in a screen for V. cholerae RctB (chromosome II replication) inhibitors. E. coli YBA685 rctB-dependent plasmid, OD600 growth, 3 h; hits give low values. z-score (concentration not given with the values). actives 0.27% (n = 130,000). AID 504770;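 active = z-score under -2 on both plates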;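 also: wells of about 30 µL received 100 nL stock; score is relative to mean and SD of the test wells; the first replicate is given; strong numbers were not always called active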
* = called active by the depositor; / = no result given; & = joins results of further samples.

Structure	CapD inh	AID504770
O=C(Cc1cccs1)N(c1ccccc1)C1C=CS(=O)(=O)C1 (stereo unspecified)	-0.35	2
CON(C)S(=O)(=O)c1cccc(C(=O)Oc2ccc(-c3nnco3)cc2)c1	/	-1.1
CC(C)N(Cc1ccccc1)C(=O)COc1ncnc2c1cnn2-c1ccccc1	/	-0.1
O=C(O)CCC(=O)N1CCNC(=O)CC1	-0.72	/
O=C(O)Cn1nc(-c2ccccc2)ccc1=O	4.9	0.5
O=C(Cn1nnc(-c2cc(C(F)(F)F)cc(C(F)(F)F)c2)n1)c1ccc(Cl)cc1	-0.01	-0.45
N#Cc1ccc(C2SCCCS2)cc1	0.12	-0.4
COc1ccccc1C(=O)NCCn1cc(SC(=N)N)c2ccccc21	-0.42	-0.7
CCOc1cccc2cc(C(N)=O)c(=Nc3ccccc3F)oc12	0.52	-0.25
CC(=O)Oc1ccccc1C(=O)Oc1ccc(/C=N\n2cnnc2)cc1	/	-0.9
COc1cccc(SCC2(O)CCN(C(=O)c3ccc(Cl)cc3)CC2)c1	-0.39	/
CCOc1ccc(C2c3c(oc4ccc(F)cc4c3=O)C(=O)N2CC2CCCO2)cc1OC (stereo unspecified)	0.78	0.6
COc1ccc(/C=C/C(=O)OCC(=O)Nc2ccccc2Cl)cc1	-0.45	0.6
CC(C)c1cc(C(C)C)c(S(=O)NCCCN2CCOCC2)c(C(C)C)c1 (stereo unspecified)	-0.52	0.1
O=c1oc2c(CN3CCOCC3)c(O)ccc2cc1-c1ccccn1	8.2	0.2
Cc1ccn2c(C(=O)CSc3ccc(Cl)cc3Cl)c(C)nc2c1	-0.48	/
O=C(CN1CSCC1=O)Nc1ccc(I)cc1	/	0.5
COc1cc(C2C3=C(CCCC3=O)Nc3[nH]c(=O)[nH]c(=O)c32)cc(OC)c1OC (stereo unspecified)	-0.65	1.4
O=C1/C(=C\c2ccsc2)CC/C1=C/c1ccsc1	-0.21	0.6
CC(=O)NS(=O)(=O)c1ccc(-c2ccc(/C=C3/C(=O)NN(c4cccc(Cl)c4)C3=O)o2)cc1	0.54	-0.7
CCOC(=O)C1=C(c2ccccc2)NC(=S)NC1CC (stereo unspecified)	0.075	1.4
c1ccc(CNCc2ccccn2)cc1	/	0.7
c1cc(OCc2nc3ccccc3s2)cc(-n2cnnn2)c1	/	0.1
N#CCOC(=O)/C=C/c1ccc2c(c1)OCO2	/	-0.45
O=C(Cn1nc(-c2ccccc2)c2c(c1=O)CCCC2)Nc1ccccc1	-0.34	-1.4

The last 2 records of the section before open the next one:
Structure	CapD inh	AID504770
N#CCOC(=O)/C=C/c1ccc2c(c1)OCO2	/	-0.45
O=C(Cn1nc(-c2ccccc2)c2c(c1=O)CCCC2)Nc1ccccc1	-0.34	-1.4
CN1/C(=C2\C=NN(C)P2(=S)N2CCCC2)C(C)(C)c2ccccc21 (stereo unspecified)	/	-0.65
S=C(NCCCN1CCOCC1)N1CCN(c2ccccc2)CC1	/	-0.7
O=C(NCc1ccco1)NNc1nc2c(-c3ccccc3)nnn2c2ccccc12	1.9	0.65
CC(CCc1ccccc1)NC(=O)c1cccs1 (stereo unspecified)	1.2	0.1
COC(=O)C1=CN(C)C=C(C(=O)OC)C1c1cccs1	94	0.85
CCOC(=O)c1c(CN2CCOCC2)n(C)c2cc(Br)c(OC(C)=O)cc12	-0.35	0.05
COc1ccc(C(=O)CSc2nsc(SCC(=O)c3ccc(OC)cc3)c2C#N)cc1	-0.17	2.1
CCOC(=O)c1cc(NC(=O)CSc2nc(C)nc3sc4c(c23)CCCC4)cc(C(=O)OCC)c1	0.015	/
O=C(COc1ccc2oc3c(c2c1)CCCC3)OCc1ccccn1	/	0.05
COc1ccc(NC(=O)CSc2nccn2-c2ccccc2)cc1	1.5	-0.15
CC(C)NC(=O)c1cc(-c2ccc(Cl)cc2)on1	0.23	-0.05
O=C(OCC(=O)N1CCCC1=O)c1ccc(-c2ccc(O)cc2)cc1	/	0.35
CC(C)CCNC(=O)c1cn(CC(C)C)c(=O)c2c1c1ccccc1n2C	-1.2	1.3
CCCc1[nH]n(-c2ccc(F)cc2)c(=O)c1C=NCCSc1ccc(C)cc1	-0.46	/
Cn1c(N)c(C#N)c2c(c1=S)CCCC2	/	-2.8*
COc1ccccc1-n1cc(C(=O)NCC(=O)NCC2COc3ccccc3O2)c2ccccc2c1=O (stereo unspecified)	0.18	-0.15
CCOC(=O)c1c(-c2ccc(C)o2)csc1NC(=S)NC(=O)N(C)C	-0.56	0.45
COCCOC(=O)C1=C(C)NC2=C(C(=O)CC(c3ccc(OC)c(OC)c3)C2)C1c1ccc([N+](=O)[O-])cc1 (stereo unspecified)	-0.03	/
CCCS(=O)(=O)c1c(C)c(C)n(Cc2cccc(Cl)c2)c1N	0.61	-0.05
O=C1c2ccc(-c3nc4ccccc4c(=O)o3)cc2C(=O)N1CC1CCCO1 (stereo unspecified)	0.9	1.4
O=C(Nc1cnccn1)c1ccc(Cl)cc1	-0.28	/
CCC(CC)c1nc2cc(OC)c(OC)cc2c(=O)o1	0.68	-0.55
COc1ccccc1CC(=O)NCc1ccc(-c2cccs2)cc1	5.4	0.3
COC(=O)C(Cc1ccc(Cl)cc1)NC(=O)Cc1nc(-c2ccccc2)oc1C (stereo unspecified)	0.85	/
O=C(c1ccccc1)c1cc(Cl)cc2c1NC(C1CC=CCC1)C1CC=CC21 (stereo unspecified)	-0.18	/

Record cards, as listed above. Screens in order: CapD inh | AID504770
Shown for Cn1c(N)c(C#N)c2c(c1=S)CCCC2 : / | -2.8*
Shown for CCC(CC)c1nc2cc(OC)c(OC)cc2c(=O)o1 : 0.68 | -0.55

The list goes on:
Structure	CapD inh	AID504770
CCOC(=O)C1=C(CSc2nc(-c3cccs3)ccc2C#N)OC(N)=C(C#N)C1c1cccs1 (stereo unspecified)	18	/
N#Cc1c(N)n(CCc2ccccc2)c2nc3ccccc3nc12	93	1.3
CCS(=O)(=O)Nc1cc(OC)c(OC)c(OC)c1	-0.05	0.6
CCOC(=O)C1=C(C)N=c2s/c(=C/c3cc(Cl)ccc3O)c(=O)n2C1c1ccc2c(c1)OCO2 (stereo unspecified)	-0.87	/
Cn1c(SCc2ccccc2)nnc1C1CCCN1C(=O)Nc1ccccc1 (stereo unspecified)	/	-0.1
O=S(=O)(c1ccc2ccccc2c1)N1CC=C(c2ccccc2)CC1	0.005	-0.35
Cc1c(C(c2ccccc2)c2c(C)n(C)n(-c3ccccc3)c2=O)c(=O)n(-c2ccccc2)n1C	-0.42	/
CSc1cccc(NC(=O)CC2SC(=Nc3ccc(F)c(F)c3)NC2=O)c1 (stereo unspecified)	0.51	-0.05
O=c1cc(NCC2CCCO2)[nH]c(=O)n1-c1ccc(Cl)cc1 (stereo unspecified)	0.56	-0.95
Cc1ccccc1CSCC(=O)c1ccc[nH]1	/	0.6
Cc1cc2c(c(=S)[nH]1)C(=O)O/C2=C/c1ccc(Cl)c(Cl)c1	-0.34	-1.1
CCCCc1cc(=O)oc2c3c(c(Cl)cc12)OCN(Cc1ccc(OC)c(OC)c1)C3	79	0.35
C#CCN1C(=O)C(O)(C2CCc3ccccc3C2=O)c2ccccc21 (stereo unspecified)	/	0.05
Cc1ccc(N2C(=O)C3N=NN(CC(=O)NCc4ccccc4Cl)C3C2=O)cc1C (stereo unspecified)	-0.67	1.7
CCOC(=O)C1CCCN(S(=O)(=O)c2cccc3nsnc23)C1 (stereo unspecified)	-0.82	-1.1
c1ccc(-c2[nH]ncc2-c2ccnc3ccccc23)nc1	0.38	/
Cn1cc(/C=N/NC(=O)c2ccc([N+](=O)[O-])o2)c2ccccc21	-1.9	/
O=C(NO)c1cccc(C(F)(F)F)c1	0.21	-0.65
CC(Cc1ccccc1)NC(=O)c1ccc(N)cc1 (stereo unspecified)	-0.05	-1
COc1ccc(-c2cc(C(F)(F)F)n3nc(C(=O)N4CCCCC4)cc3n2)cc1OC	0.14	/
NC(=O)CC12CC3CC(CC(C3)C1)C2	-0.26	/
COc1ccc(OCC(O)CNC(C)C)c(C(C)(C)C)c1 (stereo unspecified)	-0.12	-0.05
O=C1CCCN2C(=N1)SC(=S)N2CN(Cc1ccccc1)Cc1ccccc1	-0.33	-1
C#CC(C)(C)NC(=O)CN(c1ccccc1)S(=O)(=O)c1ccc(OC)cc1	-0.44	/
Cc1ccc(Cn2c(N(C)C)nc3c2c(=O)[nH]c(=O)n3C)cc1	/	0.1
O=C(OCCOc1ccccc1)c1cccc(OC(F)F)c1	/	-0.6
O=C(OCc1ccccc1)c1cccnc1	/	-1.5
CC1c2cccn2CCN1C(=O)NC1CCCCC1 (stereo unspecified)	0.18	-1
Cn1nc(C(=O)N2CCCSC2=Nc2ccccc2)c2ccccc2c1=O	/	-0.05
O=C(CSc1nc2ccccc2c(=O)n1CC1CCC(C(=O)NCC2CCCO2)CC1)NCc1ccccc1 (stereo unspecified)	-0.48	/
Cc1ccc(N2CC(C(=O)N(Cc3ccccc3)c3ccccn3)CC2=O)cc1 (stereo unspecified)	0.28	-0.4
CCOc1ccc(N2S(=O)(=O)c3ccccc3S2(=O)=O)cc1	-0.55	/
Fc1ccccc1-n1ncc2c1ncn1nc(-c3ccccc3)nc21	0.34	-1.6
O=C(O)CSc1nc2ccccc2c(=O)[nH]1	0.88	-0.4
O=C(c1cc2ccccc2cc1OCC(=O)N1CCc2ccccc21)N1CCOCC1	/	-0.25
O=C(CN1CCCC1c1cccs1)NN1C(=O)NC2(CCCCC2)C1=O (stereo unspecified)	/	-0.35
COc1ccc(F)cc1CSc1nnc2nc(C)cc(C)n12	/	-0.65
CSC1=NCCCN1C(=O)c1nn(-c2ccccc2)nc1C	0.6	/
CCOC(=O)CNC(=O)c1c(F)cccc1F	0.035	/
CCN(CC)S(=O)(=O)c1cccc(C(=O)OCC(=O)N2CC(=O)Nc3ccccc32)c1	/	0.8
Nc1c(C(=O)NCCC2=CCCCC2)nnn1-c1cccc(C(F)(F)F)c1	-0.17	0.2
CCOC(=O)c1c(CN2CCCC2)n(-c2ccccc2)c2cc(Br)c(O)cc12	-0.27	/
COC(=O)c1ccc(CNC(C)(C)C)o1	-0.3	-1.2
COc1ccccc1N(CC(O)CN1C(C)CCCC1C)S(=O)(=O)c1ccccc1 (stereo unspecified)	-0.41	0
CCCc1cc(=O)[nH]c(SCC(N)=O)n1	0.21	-0.35&0.5
O=C1C2CCCC1CC(C(=O)N1CCCCC1)C2 (stereo unspecified)	-0.24	-0.85
CCN(C(=O)c1cc(S(=O)(=O)N2CCOCC2)cn1C)c1cccc(C)c1	-0.63	1.1
CCCNC(=O)C1CSC2(CCN(C)CC2)N1C(=O)CC (stereo unspecified)	0.39	0.15
Cc1ccc(CCCOC(=O)CN2CCCC2)cc1	-0.21	-0.6
CCc1ccc(C(=O)COC(=O)C2(CC(=O)N3CCOCC3)CCCC2)cc1	/	-0.05

Some values from the list:
In AID504770, `Cn1nc(C(=O)N2CCCSC2=Nc2ccccc2)c2ccccc2c1=O` is listed with -0.05
In AID504770, `O=C(CN1CCCC1c1cccs1)NN1C(=O)NC2(CCCCC2)C1=O` (stereo unspecified) is listed with -0.35

Next structures
Structure	CapD inh	AID504770
COc1cc(C2C3=C(CC(C)(C)CC3=O)OC3=C2C(=O)CC(C)(C)C3)ccc1Oc1ccc([N+](=O)[O-])cc1C(F)(F)F	-0.22	/
CN(C)c1ccc(/C=C(\C#N)S(=O)(=O)C(C)(C)C)c(F)c1C#N	-0.66	-0.75
COc1cc(OC)nc(CSCC(=O)N2CCN(CC(=O)N3CCOCC3)CC2)n1	-0.19	/
Cc1cc2c(ncn2C)c(NS(=O)(=O)c2ccc(Cl)cc2)c1C	-0.74	/
CCOC(=O)c1sc(NC(=O)C(CC)Sc2nc3ccccc3[nH]2)nc1C (stereo unspecified)	-0.24	/
Cc1ccc(C(=O)O)cc1-c1ccc(C=C2C(=O)c3ccccc3C2=O)o1	-0.97	-0.7
NNC(=O)C1CC1c1ccccc1 (stereo unspecified)	0.45	-0.7
CCN1C(=O)/C(=C/c2ccc(F)cc2)NC1=S	-2	0
O=C(NC1CCCCCCC1)C1=COCCO1	/	-0.2
Cn1nc(SCC(=O)NN)c(=O)n(C)c1=O	/	1.5
COC(=O)c1cc(OCC(=O)c2ccc[nH]2)cc(C(=O)OC)c1	/	0.15
COc1ccc(NC(=O)CSc2nc3n[nH]c(C)c3c(=N)n2-c2cc(Cl)ccc2C)c(OC)c1	0.18	/
COc1cc(OC)nc(-c2cccc(NC(=O)CCl)c2)n1	-0.54	/
COc1cc(C2C(C(=O)OCCOc3ccccc3)=C(C)NC3=C2C(=O)CCC3)ccc1OC(C)=O (stereo unspecified)	18	/
O=c1c(NCc2ccccc2)nccn1-c1ccccc1	3.4	0
COC(=O)c1sc(SC)c(S(=O)(=O)C(C)C)c1I	-0.8	/
O=C(COc1ccccc1O)c1cccs1	-1	1.4

Another view of part of the listing above:
Below each compound – CapD inh | AID504770
> CCOC(=O)c1sc(NC(=O)C(CC)Sc2nc3ccccc3[nH]2)nc1C (stereo unspecified)
  -0.24 | /
> Cc1ccc(C(=O)O)cc1-c1ccc(C=C2C(=O)c3ccccc3C2=O)o1
  -0.97 | -0.7
> NNC(=O)C1CC1c1ccccc1 (stereo unspecified)
  0.45 | -0.7
> CCN1C(=O)/C(=C/c2ccc(F)cc2)NC1=S
  -2 | 0
